PABP FP inh: blocks human PABP binding to poly(A) RNA | fluorescence polarization | actives 1% (n = 290,000) | inhibition, % at 35 µM | P11940;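 active means 50% or more with normal probe brightness, or confirmed in later tests; inconclusive means above 50% with abnormal brightness, or retests that disagree; inactive means below 50% or failed in later tests; about a fifth of its hits are not listed in these tables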;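 further: calls also rest on retests at 20 µM and on dose response follow-up; controls were probe without protein and protein plus probe with vehicle; some compounds called inactive have numbers as strong as hits; many hits fall short of the cut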
CSC inhib: cancer stem cell inhibition. actives 1.1% (n = 300,000). cancer stem cell-like cells viability, luminescence. inhibition, % at 7.5 µM;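 active means mean at 75% or more and at least half the replicates too; inconclusive means mean and replicates disagree; tested in HMLE shEcad cells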;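 further: 0% = median of negative and 100% = median of positive control wells; the first replicate is given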
UUG fidelity: modulators of start codon recognition fidelity in yeast; S. cerevisiae UUG-firefly luciferase reporter, luminescence/redox ratio; activity score, % at 18.7 µM; actives 0.13% (n = 350,000); AID 602363;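 active means replicate mean at a twofold rise or more, about +100% in these data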;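 further: firefly luciferase made from a UUG start codon reports start codon fidelity; reporter light over untreated wells divided by growth signal over untreated wells; some hits fall short of that in this replicate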
Rce1 inh: blocks yeast Ras-converting enzyme. actives 0.27% (n = 290,000). calls only. yeast membranes, quenched prenylated peptide cleavage fluorescence. Q03530;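 active means fall in fluorescence gain of 50% or more versus controls, with final raw signal at or below 3038400; inconclusive means same 50% fall but final raw signal above 3038400; inactive means fall in fluorescence gain under 50%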;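 further: plate controls were neutral control wells for no effect and wells lacking membranes for full effect; tested at 10 µM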
Target sequence (Q03530 whole entry, looked up): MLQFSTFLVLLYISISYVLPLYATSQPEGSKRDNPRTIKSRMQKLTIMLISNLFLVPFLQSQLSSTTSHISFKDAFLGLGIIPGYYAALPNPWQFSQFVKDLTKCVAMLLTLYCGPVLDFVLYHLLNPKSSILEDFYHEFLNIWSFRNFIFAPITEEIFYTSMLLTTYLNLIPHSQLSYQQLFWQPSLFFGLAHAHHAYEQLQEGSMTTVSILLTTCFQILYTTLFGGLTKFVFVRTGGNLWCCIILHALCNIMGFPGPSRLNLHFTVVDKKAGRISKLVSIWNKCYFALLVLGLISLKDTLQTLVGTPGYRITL
eIF4H FP inh: inhibitors of RNA binding by human eIF4H. inhibition, % at 35 µM. AID 2012. Q15056. actives 0.94% (n = 290,000). eIF4H fluorescence polarization binding assay;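 active means 50% or more with normal probe brightness, or confirmed in later tests; inconclusive means above 50% with abnormal brightness, or retests that disagree; inactive means below 50% or failed in later tests; about a fifth of its hits are not listed in these tables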;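 further: calls also rest on retests at 20 µM and on dose response follow-up; 0% = protein and probe with vehicle and 100% = probe without protein; strong numbers were not always called active; many hits fall short of the cut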
Env fusion inh: blocks HIV Env-driven cell-cell fusion; HeLa-JRFL Env/CEM21 cell fusion, luciferase; inhibition, % at 12.3 µM; actives 1.1% (n = 360,000); AID 651610;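 active means mean replicate inhibition score of at least 50 and every replicate individually at or above 50; inconclusive means only one of the two criteria met; inactive means mean below 50 and not all replicates reaching 50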;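 further: 0% = plate neutral controls and 100% = maraviroc near 300 nM; one replicate is shown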
MT1-MMP act inh: inhibitors of human MT1-MMP activation; GFP/RFP ratio change, % at 20 µM; actives 0.061% (n = 360,000); AID 651647; HT1080 RFP-PRO-GFP cells, GFP/RFP ratio fluorescence, overnight; percent of plate control window, DMSO zero;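 active means GFP/RFP ratio change of at least 30% with cell ATP level not reduced by more than half and red fluorescence within 50% of control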; further: strong numbers were not always called active
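Material – HT1080 RFP-PRO-GFP cells · Control set – DMSO wells and RFP-L50D-GFP cells · Incubation – overnight cell settling, then overnight compound exposure, 37 °C, 5% CO2 · Compound dosing – single-point 20 µM compound, 1% DMSO · Read-out – GFP/RFP fluorescence ratio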
eIF4H FP inh retest: also measured in eIF4H FP inh; calls as there; inhibition, %; compound at 20 µM; confirmation average;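 mean of two retest wells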
PABP FP inh retest: further read-out of PABP FP inh, marked with its call; inhibition, %; compound at 20 µM; confirmation repeats;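 mean of two retest wells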
MT1-MMP act inh RFP: further read-out of MT1-MMP act inh, marked with its call; RFP signal change, %; measured here: RFP expression control read;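 0 = vehicle wells; hits needed this value within 50% of zero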
Starred values were filed as active, the others as inactive; i = inactive; ? = inconclusive; nt = not tested or not shown; & = joins results of further samples. Only part of the results is shown; the hit share may differ from the screen's.

SMILES	PABP FP inh	CSC inhib	UUG fidelity	Rce1 inh	eIF4H FP inh	Env fusion inh	MT1-MMP act inh	MT1-MMP act inh RFP	others
c1ccc(OCC2CCNCC2)nc1	-5	-2	-6	i	-7	-214	-2	4
O=C(N/N=C/c1cc([N+](=O)[O-])ccc1O)C1CCCCC1	1	-4	nt	i	2	9	0	-4
CC(C)(C)C(=O)CCN1C(=O)C2(OCCO2)c2ccccc21	-3	-9	-13	i	-2	nt	-1	5
COc1ccc(CC(=O)Nc2cccc3c2CCCC3)cc1	-7	-6	-4	i	-10	10	10	-7
Nc1cc(C(=O)OCC(=O)N2CCN(C(=O)COC(=O)c3ccc(Cl)c(N)c3)CC2)ccc1Cl	nt	nt	-21	nt	nt	0	9	5
OCCNC(=S)Nc1cc(Cl)cc(Cl)c1	-10	4	nt	i	-7	4	-9	1
CCCN1C(=O)c2[nH]nc(-c3cc(Cl)c(C)cc3O)c2C1c1ccc(O)c(OC)c1 (stereo not drawn)	0	4	nt	i	-8	17	11	3
COc1ccc(CCNC(=O)CSCc2ccc(Br)cc2)cc1OC	5	-5	-5	i	28	-5	1	-4
COc1ccc(C(O)c2ncc(-c3ccccc3C)[nH]2)cc1 (stereo not drawn)	nt	nt	3	nt	nt	-8	2	0
O=C(CN1C(=O)C(=O)N(C2CCCC2)C1=O)NCCc1ccc(F)cc1	nt	1	37	nt	nt	15	1	3
O=C(NCc1ccncc1)C(=O)N/N=C/c1ccc(OCc2ccccc2)cc1	-6	1	nt	i	12	-23	6	6
NC(=O)C1(N2CCCCC2)CCN(C2CC(=O)N(Cc3cccs3)C2=O)CC1 (stereo not drawn)	-5	6	-5	i	0	nt	4	7
COC(=O)[C@@]1(Cc2ccc(F)cc2)[C@H]2c3cc(C(=O)N(C)C)n(C[C@H](O)CO)c3C[C@H]2CN1C(=O)c1ccccc1	-8	-25	-13	nt	-11	-1	-1	-5
CC(C)C[C@@H](CN1C(N)=NC[C@@H]1C)NC(=O)CC12CC3CC(CC(C3)C1)C2	nt	nt	-6	nt	nt	-2	-2	-1
CCc1ccc(C(N)=S)cc1	?	5	-10	i	-7	12	-2	1
C=CCNc1ncnc2c1cnn2-c1ccc(OC)cc1	-7	-9	-24	i	0	-191	8	3
O=C(CN1C(=O)COc2ccccc21)NCc1ccc(C(=O)O)cc1	1	0	-32	i	-11	-42	1	5
COc1ccccc1C/C(N)=N/OC(=O)COc1cc(C)cc(C)c1C	-8	6	nt	i	0	-8	-5	-2
Cc1ccc(-n2cnc3c(=O)[nH]cnc32)cc1	nt	nt	-11	nt	nt	-21	-3	-1
Cc1ccc(C)c(S(=O)(=O)N2CCCOC2CNC(=O)C(=O)NC2CCCC2)c1 (stereo not drawn)	-7	2	-7	i	-8	4	2	7
Cc1ccnn1CCC(=O)N1CCCC(Nc2ccc(C(C)C)cc2)C1 (stereo not drawn)	nt	nt	5	nt	nt	10	8	-17
O=C(c1ccc(CS(=O)c2cccc(Cl)c2)o1)N1CCN(c2ccccn2)CC1 (stereo not drawn)	8	7	-13	i	-10	11	-3	-1
CC(C)Cc1nnc(NC(=O)c2ccc(N3CCCC3=O)cc2)s1	nt	-4	-11	nt	nt	nt	2	-5
CCN(CC)C(=O)C1CCN(Cc2cccc(OCc3ccccc3)c2)CC1	-2	3	8	i	-2	-5	-5	-10
COc1ccc(C(=O)C2CCN(CC(=O)Nc3cc(C)cc(C)c3)CC2)cc1	-6	3	-1	i	-6	3	3	4
CC/C(C)=N/NC(=S)NCc1ccco1	8	9	-31	i	-4	5	0	5
Fc1ccc(CNCc2ccc(Br)cc2)cc1	-5	3	nt	i	0	nt	-2	2
O=C(O)c1ccc(NC(CSCc2ccc(F)cc2)C(=O)O)c([N+](=O)[O-])c1 (stereo not drawn)	3	4	-10	i	11	nt	12	3
C#CCOCCOCCOCCNc1nc(N2CCN(C(=O)[C@H]([C@@H](C)CC)n3cc(CCCN=C(N)N)nn3)CC2)nc(N2CCN(C(=O)[C@H](CCCCN)n3cc(CCC(=O)O)nn3)CC2)n1	5	1	24	i	-3	?	5	2
CC(=O)N1CCN(c2ccccc2NC(=S)NC(=O)c2cc3ccccc3o2)CC1	0	11	-8	i	-12	13	-7	-4
CCCCN(C)C(=O)C1CCN(c2ccc(S(=O)(=O)N3CCOCC3)cc2[N+](=O)[O-])CC1	nt	6	2	i	nt	9	-1	-7
CCOC(=O)CNC(=O)c1sc2nc(C)cc(C)c2c1N	10	-9	nt	i	2	nt	4	2
CC(=O)NC(c1cccc(F)c1)c1nc(-c2cccc(C(C)C)c2)cs1 (stereo not drawn)	nt	nt	-9	nt	nt	8	1	-6
N#CCc1c(C#N)c(N)nc(N2CCN(S(=O)(=O)c3ccccc3)CC2)c1C#N	0	-1	-16	i	3	nt	-14	-5
COC(=O)C1=C(C)N(Cc2ccco2)C(=O)N[C@H]1c1cccc(C(F)(F)F)c1	10	2	nt	nt	3	nt	nt	nt
COc1ccc(N(C)S(=O)(=O)c2cccc(C(=O)NCc3ccc4c(c3)OCO4)c2)cc1	-10	-5	-10	i	-5	-5	-1	-2
O=C(CSc1nnc2c3ccccc3c3ccccc3c2n1)Nc1ccccc1F	30	14	14	i	85*	nt	-4	5	eIF4H FP inh retest=97*;PABP FP inh retest=-4
C/C(O)=C(\C#N)c1nc2ccccc2[nH]1	-1	8	-10	i	-4	nt	1	3
O=C1c2ccccc2/C(=C\c2ccc(Br)s2)N1c1ccccc1	nt	1	-10	nt	nt	-27	-8	-2
O=C(NC1CCN(Cc2ccccc2)CC1)c1c(F)cccc1F	10	2	-16	i	-4	-14	8	4
COc1ccc(NC(=O)c2cc(-c3cc(OC)c(OC)c(OC)c3)nc3ccccc23)cc1OC	6	8	-4	i	-2	-2	4	-4
CCCC[C@@H]1CN=C(N)N1CCc1cc(C(F)(F)F)cc(C(F)(F)F)c1	-10	4	-12	i	-2	-5	-7	-5
CN1CCC2(CC1)C1CN(C)CC=C1C(C#N)=C(N)C2(C#N)C#N (stereo not drawn)	?	-7&-2	-3&-5	nt	?	-63	-110&-28	0&5
O=C(NCc1ccc(S(=O)(=O)Nc2ccccc2Cl)s1)c1ccccc1	-8	4	-5	i	1	4	-2	5
Cc1ccc(OCC(=O)N(Cc2nnc(-c3ccccc3Cl)o2)C2CC2)cc1C	nt	6	-5	nt	nt	nt	0	-4
O=C(NNC(=O)c1ccc(Cl)nc1)c1ccc(Br)cc1	nt	-7	nt	nt	nt	-1	3	3
CCCCNc1cc(C)nc(N2CCOCC2)n1	-2	-2	-12	i	-3	nt	3	3
CC(C)NC(=O)c1ccc2nc([C@@H]3O[C@H](CO)[C@H](O)[C@H](O)[C@H]3O)[nH]c2c1	nt	nt	-17	nt	nt	6	-2	3
C[C@H](NC(=O)NCc1cccs1)C(=O)O	-2	-10	-14	i	8	-17	-4	6
CCOC(=O)c1cnn(-c2ccccc2)c1NC(=O)c1cccs1	-4	1	-11	i	-11	nt	2	-1
COC(=O)c1c(N2C(=O)CCC2=O)sc2c1CCCC2	6	nt	-14	i	-3	17	0	3
Cc1nc(CS(=O)(=O)c2ccccn2)sc1C(=O)NNC(=O)c1c(F)cccc1Cl	-3	-7	4	i	4	1	-7	-1
Cc1cccc(C(=O)N/N=C/C(C)Cc2ccc3c(c2)OCO3)c1 (stereo not drawn)	-1	7	nt	i	-2	6	2	7
COc1ccccc1C(=O)Nc1ccc2c(c1)nc(CN1CCCCC1)n2C	14	nt	-30	i	-9	-7	2	3
O=c1[nH]cnc2scc(-c3ccc(F)cc3)c12	-10	9	nt	i	-9	-269	0	0
CCOC(=O)C1=C(CC)OC(N)=C(C#N)C1c1ccc(F)cc1F (stereo not drawn)	-4	-20	nt	i	4	9	2	9
CCSc1nnc(CCNS(=O)(=O)c2ccc(C(C)=O)cc2)n1C	2	0	-13	i	8	-5	3	5
CC(=O)c1cc(OC(=O)c2ccncc2)ccc1OC(=O)c1ccncc1	21	1	-16	i	6	nt	-2	-2
O=C1Nc2ccc([N+](=O)[O-])cc2C1=Nc1cccc(CO)c1	5	nt	nt	nt	-8	-9	-1	3
O=C(NCCCNC(=O)C(F)(F)C(F)F)C(F)(F)C(F)F	-8	7	-24	i	8	-19	3	-1

New compounds follow
SMILES	PABP FP inh	CSC inhib	UUG fidelity	Rce1 inh	eIF4H FP inh	Env fusion inh	MT1-MMP act inh	MT1-MMP act inh RFP	others
CC(C)(C)/C(O)=C/c1nc2cc(Cl)ccc2oc1=O	0	22	-8	i	-13	19	11	-10
COc1cc(Cl)c(C)cc1NC(=O)CN1C(=O)C2CCCCC2C1=O (stereo not drawn)	nt	nt	-4	nt	nt	12	-6	1
O=C(Nc1nc2c(Br)cc(Br)cc2c(=O)s1)c1ccco1	-12	54	-11	i	-3	0	-7	-1
COC(=O)c1ccccc1NC(=O)CC(=O)Nc1ccccc1C(=O)OC	-6	-6	-10	i	-13	-4	-5	2
O=C(CNC(=O)c1cc(Cl)nc2ccccc12)Nc1ccccc1Br	nt	-8	-5	nt	nt	nt	1	0
CC(NC(=O)c1ccco1)c1ccc2c(c1)OCCO2 (stereo not drawn)	4	-16	-2	i	5	4	1	3
C[C@H](CO)N1C[C@H](C)[C@@H](CN(C)S(=O)(=O)c2ccc(F)cc2)Oc2c(NC(=O)Nc3ccc(C(F)(F)F)cc3)cccc2C1=O	nt	19	-9	nt	nt	-64	2	-5
COc1ccc(NC(=O)Nc2ccc(F)cc2F)c(C)c1	-3	2	-12	i	2	4	4	5
CCc1cc(C(=O)OC)c(NC(=O)CCC(=O)O)s1	7	0	-14	i	0	-9	4	1
COCCSc1nnc(NC(=O)C2CC(=O)N(CCc3ccc(F)cc3)C2)s1 (stereo not drawn)	2	-6	-6	i	27	-4	1	1
c1cc(N2CCCCC2)nc(N2CCCCC2)n1	nt	nt	0	nt	nt	-28	2	4
Cc1cn([C@H]2C[C@H](O)[C@@H](/C=C/C(=O)NCCC(C)C)O2)c(=O)[nH]c1=O	nt	nt	-13	nt	nt	0	2	3
O=C(CSc1nnc(CNC(=O)c2ccc(F)cc2)o1)c1ccccc1	-6	-8	-25	i	-2	0	-1	2
NC(=O)c1ccc(-n2nnnc2SCC(=O)Nc2ccc(F)cc2)cc1	0	-3	-13	i	-5	6	nt	nt
CC(C)CCNC(=O)C1(C)CCN1Cc1ccc(-c2ccccn2)cc1 (stereo not drawn)	nt	nt	-5	nt	nt	29	3	-2
COc1cccc(NC(=S)N2C3CCCC2CC(NC(=O)C2CC2)C3)c1 (stereo not drawn)	3	29	-26	i	0	15	0	2
C=CCN(CC=C)C(=O)C1CCN(S(=O)(=O)c2ccc(-n3cnnn3)cc2)CC1	2	nt	-8	i	-2	10	0	-3
Cc1ccc2nc(C)c(C(=O)N/N=C/c3cccs3)cc2c1	7	-6	nt	i	-3	-12	-2	7
O=C(CCn1c(=S)oc2ccccc21)NC1CCCCCCC1	-2	nt	-11	i	-5	22	-3	-2
N#Cc1ccc(-c2cccnc2)nc1SCC(N)=O	-3	-14	-7	i	-13	5	-1	-6
O=C(CSc1c2c(nc3ccccc13)CCC2)N1CCCC1	6	8	nt	i	1	-6	-1	1

Compound activity as filed in PubChem BioAssay.
